Cruzain inh noDet: qHTS Assay for Promiscuous and Specific Inhibitors of Cruzain (without detergent); Potency, µM, for the others: max response, negative = inhibition, most hits filed as inhibitors; purified cruzain, Z-FR-AMC fluorescence, no detergent; Cruzipain (Trypanosoma cruzi), P25779; 2.3% of 200,000 active;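 further: plate controls were enzyme without inhibitor for no effect and buffer without enzyme for full effect; nearly all actives have a fitted effect of over 40% in size; top concentration of the series not given in the record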
Target sequence (P25779 123-467 limits assumed): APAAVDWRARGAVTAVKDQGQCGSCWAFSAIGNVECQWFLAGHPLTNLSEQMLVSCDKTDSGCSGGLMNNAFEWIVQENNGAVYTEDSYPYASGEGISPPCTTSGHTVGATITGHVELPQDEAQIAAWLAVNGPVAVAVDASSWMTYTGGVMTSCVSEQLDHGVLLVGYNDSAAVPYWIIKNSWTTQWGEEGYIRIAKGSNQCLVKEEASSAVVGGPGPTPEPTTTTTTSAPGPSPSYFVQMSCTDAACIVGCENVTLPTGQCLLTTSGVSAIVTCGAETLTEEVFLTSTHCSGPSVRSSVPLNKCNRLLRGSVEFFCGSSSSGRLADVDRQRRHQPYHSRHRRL
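Detergent-free condition (0.00005% Triton X-100) in acetate buffer pH 5.5 with DTT. 1.5 nM enzyme and compound were pre-mixed 15 min, then 2 uM Z-FR-AMC substrate added; reaction progress from fluorescence change between first and third reads (60 s).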
NS1 function inh: qHTS Assay for Inhibitors of Influenza NS1 Protein Function; S. cerevisiae slowed by influenza A NS1, growth recovery by OD600; Potency, µM (series often up to 46.1 µM), without a hit: at the highest dose activity, positive = more growth; 0.4% of 270,000 active; active means well fitted rising curve with a large enough effect; inconclusive means small, poorly fitted or top-dose-only effect; inactive means no such curve, though single readings can be large or run the other way; further: nearly all actives have a fitted effect of over 50% in size
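S. cerevisiae expressing influenza A NS1, grown in glucose, washed, then diluted 1:100 into pH 6.0 -URA galactose medium with 23 nl compound. Growth recovery read as OD600; NS1-free strain serves as control.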
2A StopGo: High Throughput Screening for Foot and Mouth Disease Virus Antivirals | Potency, µM (series often up to 57.9 µM), for inactives: top-dose signal change, negative = less light | human cells with a luciferase reporter of 2A StopGo recoding; control for the full effect not named in the record | 1.2% of 410,000 active; active = well fitted falling curve with a large enough effect; inconclusive = small, poorly fitted or top-dose-only effect; inactive = no such curve, though single readings can be large or run the other way; tested in HEK293T cells; further: on the % scale 0 is the no-effect control and ±100 the full control effect; nearly all actives have a fitted effect of over 45% in size; luciferase light after 4 h
Cruzain Triton: qHTS Assay for Promiscuous and Specific Inhibitors of Cruzain (with detergent); purified cruzain, Z-FR-AMC fluorescence, 0.01% Triton; 0.43% of 200,000 active; AID 1478, 2009; Potency, µM, for inactives: max response, negative = inhibition, usual class: inhibitors;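 further: plate controls were neutral wells for no effect and buffer without enzyme for full effect; nearly all actives have a fitted effect of over 40% in size; top concentration of the series not given in the record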
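Read-out: AMC fluorescence (360 nm excitation, 450 nm emission), four reads over 2 min, first-to-third difference used. Conditions: cruzain 1.5 nM, Z-FR-AMC 2 uM, pH 5.5 acetate, 5 mM DTT, 0.01% Triton X-100.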
Lassa entry inh: qHTS for Inhibitors of binding or entry into cells for Lassa Virus | Lassa virus pseudotype entry inhibition, cell reporter; control for the full effect not named in the record | Potency, µM (top dose mostly 37.9 µM), for inactives: at the top dose activity change, negative = inhibition, actives largely listed as inhibitors | 1.2% of 300,000 active | AID 540256, 2011; active means well fitted inhibition curve with a large enough effect; inconclusive means small, poorly fitted or top-dose-only effect, or effect the other way; inactive means flat fitted curve, though single readings scatter; tested in HEK293 cells; further: on the % scale 0 is the no-effect control and ±100 the full control effect; nearly all actives have a fitted effect of over 50% in size; luciferase read-out
RE007 growth inh: qHTS Assay for Inhibitors of the HIV-1 protein Vpr; S. pombe RE007 Vpr strain, BacTiter-Glo ATP luminescence, 24 h; control for the full effect not named in the record; 0.21% of 360,000 active; AID 651644, 2012; Potency, µM (doses to about 92.2 µM), inactives show at the highest dose activity change, negative = less growth; active = well fitted falling curve with a large enough effect; inconclusive = small, poorly fitted or top-dose-only effect; inactive = no such curve, though single readings can be large or run the other way;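 further: on the % scale 0 is the no-effect control and ±100 the full control effect; nearly all actives have a fitted effect of over 50% in size; the assay follows cell death caused by Vpr and the record does not say whether a fall means rescue or toxicity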
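Fission yeast RE007 carrying one integrated HIV-1 vpr copy, seeded at OD 0.01 in PMG+AL medium with 23 nL pinned compound. Grown 24 h at 30 degrees; viability read by BacTiter-Glo luminescence after 5 min.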
Marburg entry inh: qHTS for inhibitors of binding or entry into cells for Marburg Virus; 1.8% of 300,000 active; Marburg virus pseudotyped entry inhibition, cell reporter; control for the full effect not named in the record; about a third of the inactives were read at about 46 µM; AID 540276, 2011; Potency, µM (top dose mostly 37.8 µM), for the others: top-dose activity change, negative = inhibition, actives largely listed as inhibitors; active = well fitted inhibition curve with a large enough effect; inconclusive = small, poorly fitted or top-dose-only effect, or effect the other way; inactive = flat fitted curve, though single readings scatter; tested in HEK293 cells; about a fifth of its hits are not listed in these tables; further: on the % scale 0 is the no-effect control and ±100 the full control effect; luciferase read-out
SARS PLP yeast: qHTS of Yeast-based Assay for SARS-CoV PLP. S. cerevisiae expressing SARS-CoV PLpro, growth rescue; control for the full effect not named in the record. Potency, µM (highest dose often 32.9 µM), for the others: at the top dose activity, positive = growth rescue. 0.19% of 330,000 active. AID 485353, 2010; active means well fitted rising curve with a large enough effect; inconclusive means small, poorly fitted or top-dose-only effect; inactive means no such curve, though single readings can be large or run the other way; further: 0% is about no effect; nearly all actives have a fitted effect of over 55% in size; growth read by luminescence after 48 h
* hit, by the source's call; & = joins results of further samples; [ ] = dose if it differs, or a comment. Unless noted, the call rests on the fitted dose curve; in most records, active means well fitted curve in the direction sought with a large enough effect; inconclusive means small, poorly fitted or top-dose-only effect, or another doubt; inactive means no such curve, though single readings can be large; an effect the other way counts as inactive or inconclusive. Potency means the concentration at half of the fitted maximal effect.

COC(=O)c1c(NS(=O)(=O)c2ccc(C)cc2)sc2c1CCC(C)C2 (stereo not drawn) was read as Cruzain inh noDet -18%, NS1 function inh -3%, 2A StopGo -8%, Cruzain Triton -5.0%, Lassa entry inh -17%, RE007 growth inh 0%, Marburg entry inh 5% and SARS PLP yeast inconclusive.
C/C(=N\N=C(c1ccccc1)c1ccccc1)c1cccs1 was read as Cruzain inh noDet -4%, NS1 function inh -12%, Cruzain Triton -2.0%, Lassa entry inh 6%, RE007 growth inh -14%, Marburg entry inh -11% and SARS PLP yeast -24%.
Screening CCOc1ccc2c(c1)N(C(=O)CN1C(=O)CCC1=O)C(C)(C)C=C2C returned Cruzain inh noDet 14%, NS1 function inh -13%, 2A StopGo -20%, Cruzain Triton 2.0%, Lassa entry inh 4%, RE007 growth inh 2%, Marburg entry inh -10%[46.1 µM] and SARS PLP yeast -2%.
`CCCCCNC(=O)c1cc(S(=O)(=O)N2CCCCC2)ccc1F` gave Cruzain inh noDet -6%, NS1 function inh -1%, 2A StopGo 1%, Cruzain Triton 5.5%, Lassa entry inh 2%, RE007 growth inh 6%, Marburg entry inh 5% and SARS PLP yeast 2%.
Screening CC(=O)Nc1ccc(C(=O)Cn2nnc3ccccc3c2=O)cc1 returned Cruzain inh noDet 1%, NS1 function inh -1%, 2A StopGo 0%, Cruzain Triton -2.5%, Lassa entry inh 35%[14.3 µM], RE007 growth inh 13%, Marburg entry inh inconclusive and SARS PLP yeast 12%.
Cc1cc(C)cc(NC(=O)N2CCCCCCC2)c1 was read as NS1 function inh -2%, 2A StopGo -7%, Lassa entry inh inconclusive, RE007 growth inh -10%, Marburg entry inh -2%&-2%[46.1 µM] and SARS PLP yeast 0%.
O=C(Nc1ccc(S(=O)(=O)N2CCCCC2)cc1)c1ccc(CN2CCc3ccccc3C2)cc1 was read as Cruzain inh noDet 2%, NS1 function inh 11%, 2A StopGo inconclusive, Cruzain Triton 1.2%, Lassa entry inh inconclusive, RE007 growth inh -3%, Marburg entry inh inconclusive and SARS PLP yeast -3%.
Screening CCCCOc1ccc(/C=C/C(=O)OCC(=O)N2CC(=O)Nc3ccccc32)cc1OCC returned Cruzain inh noDet 13%, NS1 function inh 7%, 2A StopGo 13µM*, Cruzain Triton -17%, Lassa entry inh -24%, RE007 growth inh 1%, Marburg entry inh -8% and SARS PLP yeast 4%.
For O=C(Nc1cccc(-c2nc3cccnc3s2)c1)c1cccc(Br)c1 the results were Cruzain inh noDet 3%, 2A StopGo -13%, Cruzain Triton -5.7%, Lassa entry inh -13%[46.1 µM] and Marburg entry inh 3%[46.1 µM].
Screening COc1ccc(-c2cc(C(=O)N3CCN(C(c4ccccc4)c4ccccc4)CC3)no2)cc1 returned Cruzain inh noDet inconclusive, NS1 function inh inconclusive, 2A StopGo -14%, Cruzain Triton 1.2%, Lassa entry inh inconclusive, RE007 growth inh -6%, Marburg entry inh inconclusive and SARS PLP yeast -8%.
For COc1cccc(CNC(=O)CCNC(=O)c2ccc(Br)o2)c1 the results were NS1 function inh -7%, 2A StopGo 1%, RE007 growth inh 5% and SARS PLP yeast 19%.
Screening Cc1ccc(Nc2ncnc3sc(C)c(C)c23)cc1C returned Cruzain inh noDet 0%, NS1 function inh -2%, 2A StopGo 9%, Cruzain Triton 4.8%, Lassa entry inh 15%, RE007 growth inh 0%, Marburg entry inh 19% and SARS PLP yeast -10%.
COc1ccc(CCNC(=O)c2cc3c(=O)n4ccccc4nc3n(CC3CCCO3)c2=N)cc1OC (stereo not drawn) was read as NS1 function inh -2%, 2A StopGo -23%, RE007 growth inh -14% and SARS PLP yeast -2%.
Screening Cc1ccccc1OCC(=O)NCC1CCCO1 (stereo not drawn) returned Cruzain inh noDet -1%, NS1 function inh -5%, 2A StopGo 21%, Cruzain Triton 5.0%, Lassa entry inh 2%, RE007 growth inh 5%, Marburg entry inh 0% and SARS PLP yeast -2%.
`O=C1CSC(=Nc2ccccc2)N1` gave Cruzain inh noDet 6%, NS1 function inh -4%, 2A StopGo 6%, Cruzain Triton -2.3%, Lassa entry inh 5%, RE007 growth inh -8% and Marburg entry inh 6%.
Screening CCCc1cc(NCc2ccccn2)n2nc(C)c(-c3ccccc3)c2n1 returned NS1 function inh -108%, 2A StopGo -13%, Lassa entry inh inconclusive, RE007 growth inh inconclusive, Marburg entry inh inconclusive and SARS PLP yeast -4%.
`O=C(NCCCN1CCOCC1)c1cccc(S(=O)(=O)Nc2ccccc2Cl)c1` gave NS1 function inh 6%, 2A StopGo -25%, Lassa entry inh -18%, RE007 growth inh 7%, Marburg entry inh 10% and SARS PLP yeast -2%.
Screening CCOc1ccccc1NC(=O)CSc1nnc(-c2cnccn2)n1C returned Cruzain inh noDet 3%, NS1 function inh -4%, 2A StopGo -2%, Cruzain Triton 2.7%, Lassa entry inh -1%, RE007 growth inh 1%[3.69 µM], Marburg entry inh 4% and SARS PLP yeast -2%.
Screening O=C1CC(=O)N(Cc2ccccc2)C(=O)N1CCCCCCN1C(=O)CC(=O)N(Cc2ccccc2)C1=O returned NS1 function inh 20%, 2A StopGo -4%, Lassa entry inh 0%, RE007 growth inh -1%, Marburg entry inh -6%[46.1 µM] and SARS PLP yeast 1%.
For CCN(Cc1ccccc1)C(=O)c1cc2c(OC)c(OC)c(OC)cc2[nH]1 the results were NS1 function inh -2%, 2A StopGo 8%, RE007 growth inh -12% and SARS PLP yeast 4%.
`CSc1ccc(CN2CCSCC2)cc1` gave NS1 function inh -13%, 2A StopGo -1%, Lassa entry inh 5%, RE007 growth inh -16%, Marburg entry inh 15% and SARS PLP yeast -7%.
CCCCN(CCCC)CCNC(=O)c1cn(CC)c2ccc(S(=O)(=O)N(C)C3CCCCC3)cc2c1=O was read as Cruzain inh noDet inconclusive, NS1 function inh -9%, 2A StopGo 15%&29%, Cruzain Triton 7.7%, Lassa entry inh 15%[46.1 µM], RE007 growth inh -10%, Marburg entry inh 11%&11%[46.1 µM] and SARS PLP yeast -2%.
`Cc1c(O)nc(SC2CC(=O)N(c3ccccc3)C2=O)[nH]c1=O` (stereo not drawn) gave Cruzain inh noDet -10%, NS1 function inh 1%, 2A StopGo -7%, Cruzain Triton -0.1%, Lassa entry inh 5%, RE007 growth inh -13% and Marburg entry inh 1%.
`Cc1ccc(NC(=O)c2sc(C)nc2C)c(C)c1` gave NS1 function inh 3%, 2A StopGo 0%, Lassa entry inh 25%[46.1 µM], RE007 growth inh 6%, Marburg entry inh inconclusive and SARS PLP yeast 1%.
CC(=O)c1ccc(NC(=S)NCC(c2ccco2)N2CCCC2)cc1 (stereo not drawn) was read as NS1 function inh 5%, 2A StopGo 1%, RE007 growth inh -22% and SARS PLP yeast 1%.
For CCOC(=O)CN1CC23C=CC(O2)C(C(=O)O)C3C1=O (stereo not drawn) the results were Cruzain inh noDet -2%, NS1 function inh inconclusive, 2A StopGo -23%, Cruzain Triton 1.9%, RE007 growth inh 4% and SARS PLP yeast 7%.
`O=C(COC(=O)CNC(=O)c1ccc([N+](=O)[O-])o1)Nc1ncc(Cl)cc1Cl` gave 2A StopGo -21%, Lassa entry inh inconclusive, RE007 growth inh -15%, Marburg entry inh -11% and SARS PLP yeast -16%.
For COc1ccc(/C=C2\CCC/C(=C\C=N\N(C)C)C2=O)cc1 the results were 2A StopGo 2%, Lassa entry inh -13%, RE007 growth inh -8%, Marburg entry inh -29% and SARS PLP yeast -8%.
C[C@@H](C(=O)NCc1ccccc1)[C@@H]1C[C@@]1(C)[C@@H](NC(=O)OCc1ccccc1)c1ccccc1 was read as Cruzain inh noDet 25%&0%, NS1 function inh 50%, 2A StopGo -5%, Cruzain Triton -4.7%&-1.6%, Lassa entry inh 7.3µM*, RE007 growth inh 1%, Marburg entry inh -62% and SARS PLP yeast -5%.
CC(=O)Nc1ccc(C(=O)N(C)C(C(=O)Nc2ccc(C)cc2)c2ccccn2)cc1 (stereo not drawn) was read as Cruzain inh noDet 7%, NS1 function inh -43%, 2A StopGo -8%, Cruzain Triton -0.9%, Lassa entry inh -11%, RE007 growth inh 66%, Marburg entry inh 10% and SARS PLP yeast -1%.

Fetched by structure from the entries so far, 2 records:
`O=C(COC(=O)CNC(=O)c1ccc([N+](=O)[O-])o1)Nc1ncc(Cl)cc1Cl` gave 2A StopGo -21%, Lassa entry inh inconclusive, RE007 growth inh -15%, Marburg entry inh -11% and SARS PLP yeast -16%.
CC(=O)Nc1ccc(C(=O)N(C)C(C(=O)Nc2ccc(C)cc2)c2ccccn2)cc1 (stereo not drawn) was read as Cruzain inh noDet 7%, NS1 function inh -43%, 2A StopGo -8%, Cruzain Triton -0.9%, Lassa entry inh -11%, RE007 growth inh 66%, Marburg entry inh 10% and SARS PLP yeast -1%.

Additional compounds
`CCOCCCn1c(SCC(=O)Nc2cc(OC)ccc2OC)nc2ccccc2c1=O` gave NS1 function inh inconclusive, 2A StopGo -24%, RE007 growth inh 5% and SARS PLP yeast 7%.
Screening COc1ccc(C(=O)Nc2ccc(C(=O)N3CCOCC3)cc2)cc1OC returned NS1 function inh 3%, 2A StopGo 42%[activator], RE007 growth inh -25%, Marburg entry inh -1%[46.1 µM] and SARS PLP yeast -5%.
For CCn1cc(C(=O)NCC(C)C)c(=O)c2cc(F)c(N3CCN(C(=O)c4ccco4)CC3)cc21 the results were NS1 function inh 3%, 2A StopGo -15%, Lassa entry inh inconclusive, RE007 growth inh 0%, Marburg entry inh 1%[46.1 µM] and SARS PLP yeast 1%.
`COc1ccc(CC(=O)N2CC3(C)CC2CC(C)(C)C3)cc1` (stereo not drawn) gave Cruzain inh noDet 5%, NS1 function inh -19%, Cruzain Triton 1.3%, Lassa entry inh 2%, RE007 growth inh -1%, Marburg entry inh -18% and SARS PLP yeast -4%.

High-throughput results deposited in PubChem by National Center for Advancing Translational Sciences (NCATS).
